Bioassay records as filed in PubChem BioAssay.
KCNQ2 inh = KCNQ2 potassium channel inhibitors, primary screen, cell-based, CHO-K1, FluxOR thallium flux, B-score (AID 2156) | 1.1% of 310,000 active | B-score at 10 µM | 20 min; hits give low values; only compounds with negative scores are shown here; some inactives read as strong as hits | Potassium voltage-gated channel subfamily KQT member 2 (Rattus norvegicus), O88943;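 active = fluorescence ratio B-score at most minus 3 library SDs, with starting brightness B-score within 2 library SDs, cut at about -5.5 in these data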
Target sequence (O88943 whole entry, looked up): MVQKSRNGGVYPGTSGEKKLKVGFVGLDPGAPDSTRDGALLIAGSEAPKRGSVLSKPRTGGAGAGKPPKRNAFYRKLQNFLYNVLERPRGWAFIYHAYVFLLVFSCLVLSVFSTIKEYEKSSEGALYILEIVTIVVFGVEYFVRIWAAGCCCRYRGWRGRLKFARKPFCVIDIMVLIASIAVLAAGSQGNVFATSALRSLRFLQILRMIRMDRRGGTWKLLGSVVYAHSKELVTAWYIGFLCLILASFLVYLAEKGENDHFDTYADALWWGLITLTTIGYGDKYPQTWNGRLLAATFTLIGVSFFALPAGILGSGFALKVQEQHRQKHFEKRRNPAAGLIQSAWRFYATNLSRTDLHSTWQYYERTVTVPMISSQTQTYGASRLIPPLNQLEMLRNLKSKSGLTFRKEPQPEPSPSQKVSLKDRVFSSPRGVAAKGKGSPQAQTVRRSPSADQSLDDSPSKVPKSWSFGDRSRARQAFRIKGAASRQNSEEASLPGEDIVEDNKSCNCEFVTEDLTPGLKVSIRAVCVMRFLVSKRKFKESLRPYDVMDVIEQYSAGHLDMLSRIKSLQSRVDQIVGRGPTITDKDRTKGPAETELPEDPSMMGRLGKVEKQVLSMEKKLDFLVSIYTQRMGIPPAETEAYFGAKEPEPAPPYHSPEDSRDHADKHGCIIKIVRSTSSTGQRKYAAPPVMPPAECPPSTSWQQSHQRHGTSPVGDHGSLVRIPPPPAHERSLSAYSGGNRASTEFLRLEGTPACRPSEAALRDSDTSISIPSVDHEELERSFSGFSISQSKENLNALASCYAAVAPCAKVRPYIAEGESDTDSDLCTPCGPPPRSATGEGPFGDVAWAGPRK
KCNQ2 inh baseline = recorded beside KCNQ2 inh, whose call it bears; B-score; measured here: initial fluorescence intensity artifact check;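 brightness before thallium and not channel activity; 0 = typical well and far values either way flag optical interference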
* marks the source's active call; other numbers are inactive results; i = inactive. This is a subset, so the mix of outcomes need not match the whole.

SMILES | KCNQ2 inh | KCNQ2 inh baseline
COC(=O)c1sccc1NC(=O)CSc1ccccc1NC(=O)CNC(C)C | i | 2.5
CCOC(=O)CCC(=O)OCC(=O)NC(C)C1CC2CCC1C2 (configuration not stated) | i | 0.16
COCCNC(=O)c1c[nH]c2ccc(S(=O)(=O)Nc3ccc(F)cc3F)cc2c1=O | i | 1.4
Cc1ccc(C)c(OCCCNCc2ccccc2)c1 | i | 1.5
CC1CCN(C(=O)CSc2ccc(-c3cccnc3)nn2)CC1 | i | 0.04
Cc1cc(C(=O)COC(=O)C2=NN(c3ccccc3)C(=O)CC2)c(C)n1CC(F)(F)F | i | 0.31
COc1cc(/C=C/C(=O)O)cc(S(=O)(=O)N2CCN(S(=O)(=O)c3ccc(Cl)cc3)CC2)c1OC | i | 0.87
N#C/C(=C\c1ccccc1)C(=O)Nc1ccccn1 | i | -0.15
c1ccc2c(CNCCN3CCOCC3)cccc2c1 | i | -0.75
C/C(=N/NS(=O)(=O)c1ccc(C)cc1)[C@H]1C[C@@H]1c1ccccc1 | i | 0.91
O=C(NCCc1ccccc1)C(=O)N/N=C/c1ccccc1C(F)(F)F | i | -0.68
COc1ccc(/C=C/C(=O)NCc2nc3ccccc3[nH]2)cc1OC | i | 0.03
COc1ccc(C(=O)CN2C(=O)NC3(CCCc4ccccc43)C2=O)cc1OC (configuration not stated) | i | 0.98
NC(=S)N=Nc1c(O)n(CC(=O)Nc2ccccc2)c2ccccc12 | i | -0.02
COc1ccc(C(=O)Nc2nc3ccccc3c(=O)[nH]2)cc1 | i | -0.89
O=C(NC(=S)Nc1cccc2cccnc12)c1ccccc1 | i | -0.39
Cc1nnc(C)n1/N=C/c1cccc(Oc2ccccc2)c1 | i | -0.25
CCOC(=O)CN1C(=O)S/C(=C/c2cc(C)n(-c3ccccn3)c2C)C1=O | i | 0.38
Cc1cc(C)nc(CCNC(=O)c2cc(COc3ccc(F)cc3F)on2)n1 | i | -0.77
Cc1noc(C)c1C(=O)OCC(=O)NCCc1ccc(Cl)cc1 | i | 0.09
COCCN(C(=O)COC(=O)/C=C/c1ccc2ccccc2n1)c1c(N)n(Cc2ccccc2)c(=O)[nH]c1=O | i | 3.2
CC(=O)NS(=O)(=O)c1ccc(N=NN2CCCCC2)cc1 | i | 0.41
O=C(O)CCC(=O)N1CCc2cc(S(=O)(=O)NCCc3ccc(Cl)cc3)ccc21 | i | 0.4
CC1Cc2ccccc2N1C(=O)CSc1nnnn1C (configuration not stated) | i | 3.3
O=C(Nc1c2ccccc2nc2ccccc12)C(Cl)(Cl)Cl | i | 0.49
Cn1c(=O)cc(SCC(=O)NCc2cccnc2)c2ccccc21 | i | 1.9
CCCC(CCC)=NNC(=O)CN(Cc1ccccc1)S(=O)(=O)c1ccccc1 | i | 0.78
CCOC(=O)C1CCN(C(=O)/C=C/c2ccc3c(c2)OCO3)CC1 | i | -0.61
O=C(CCCN1C(=O)/C(=C\c2cccs2)SC1=S)Nc1cccc(C(=O)O)c1 | i | -1.4
COc1cccc(CNC(=O)c2cc3ccccn3n2)c1 | i | 0.01

3 compounds out of the list, arranged by molecular weight, highest first:
SMILES | KCNQ2 inh | KCNQ2 inh baseline
COc1cc(/C=C/C(=O)O)cc(S(=O)(=O)N2CCN(S(=O)(=O)c3ccc(Cl)cc3)CC2)c1OC | i | 0.87
COCCN(C(=O)COC(=O)/C=C/c1ccc2ccccc2n1)c1c(N)n(Cc2ccccc2)c(=O)[nH]c1=O | i | 3.2
CCOC(=O)CCC(=O)OCC(=O)NC(C)C1CC2CCC1C2 (configuration not stated) | i | 0.16

(cont.)
SMILES | KCNQ2 inh | KCNQ2 inh baseline
COc1ccc(CC(=O)NNS(=O)(=O)c2ccc([N+](=O)[O-])cc2)cc1OC | i | 2.2
CC(=O)c1c(C)oc2ccc(N(C(C)=O)S(=O)(=O)c3ccc(F)cc3C)cc12 | i | 1.7
CC(C)(C)OC(=O)COc1cc(O)c2c(=O)cc(-c3ccccc3)oc2c1 | i | -1.3
S=C1NC2(CCCCC2)N=C1c1ccccc1 | i | 1.5
CCOc1ccc(N(CC(=O)NCCc2ccc(F)cc2)S(=O)(=O)c2ccccc2)cc1 | i | 1.2
O=S1(=O)c2ccccc2N=NN1Cc1cc(Cl)cc(Cl)c1 | i | 3.1
COc1ccccc1NS(=O)(=O)c1ccc(/C=C/C(=O)O)cc1 | i | -0.24
Cc1nc(Sc2ccccc2)c(C#N)cc1-c1ccccc1 | -9.3* | 0.35*
C=C1CCN([C@@H](Cc2ccccc2)C(=O)NCc2ccc(Cl)cc2)S(=O)(=O)c2ccccc21 | -6* | -0.47*
C[C@H](NC(=O)c1cc2cc(Cl)ccc2n1C)C(=O)N[C@@H](Cc1ccccc1)C(=O)O | i | -0.17
O=C(c1nsc(Cl)c1Cl)N1CCCCC1 | i | 0.02
COc1ccc(-c2ccc(OC)cc2)cc1 | i | -1.4
CN(CCOc1ccccc1)C(=O)c1ccc(N2CCCC2)c([N+](=O)[O-])c1 | i | -0.49
CC(=O)Nc1ccc(S(=O)(=O)N2CCN(S(=O)(=O)c3ccccc3)CC2)cc1 | i | -2.6
Cc1cccc(C)c1Nc1nc2ccccc2o1 | i | -0.41
Cc1ccc(CC(=O)Nc2ccc(C(=O)N3CCOCC3)cc2)cc1 | i | -0.84
Cc1sc2c(c1C)CN(CCN1CCOCC1)CN2C(=O)c1ccccc1 | i | 0.05
Fc1ccc(CNC(=S)NC2CCCCCC2)cc1 | i | 0.87
CC(C)CNC(=O)CC(=O)N/N=C/c1ccc(F)cc1 | i | 0.84
CC(C)(C)NC(=O)CN(Cc1cccs1)C(=O)CNS(=O)(=O)c1ccccc1 | i | 0.09
CN1CCN(C2=Nc3c(Cl)cc(Cl)c4cccc2c34)CC1 | i | 2.5
Cc1c(N2C(=O)C(=O)/C(=C(/O)c3ccc(Cl)cc3)C2c2ccccc2)c(=O)n(-c2ccccc2)n1C (configuration not stated) | i | 2
CC(C)N1CCc2c(sc(NC(=O)CCS(=O)(=O)c3ccccc3)c2C(N)=O)C1 | i | -0.07
COc1cccc(CNC(=O)Cn2cc3c(n2)CCCCC3)c1 | i | -0.37
CC(Nc1c([N+](=O)[O-])c(=O)oc2ccccc12)C(Cl)c1ccccc1 (configuration not stated) | i | -1.2
CC1CCCCN1CCCNC(=O)CN1C(=O)c2cccnc2Oc2ccccc21 (configuration not stated) | i | -0.01
COC(=O)c1ccc(Oc2c(Cl)cccc2[N+](=O)[O-])cc1 | i | 0.84
Cc1ccnc(NC(=O)CCC(=O)c2cccs2)c1 | i | -0.2
O=C(Nc1ccc(-n2cccn2)cc1)C1CCCCN1Cc1cccc2cccnc12 (configuration not stated) | i | -0.45
Cc1ccc(S(=O)(=O)NCc2ccc(C(=O)NCCN(Cc3ccccc3)C(C)C)cc2)cc1 | i | 0.09
CCN(C(=O)COC(=O)C1CCN(S(=O)(=O)c2ccc(C)c(C)c2)CC1)C1CCS(=O)(=O)C1 (configuration not stated) | i | 0.08
COc1ccc(C(=O)Nc2ccc(S(=O)(=O)N3CCCCC3)cc2)cc1OC | i | -0.73
Cc1ccc(C)n1C1CCS(=O)(=O)C1 (configuration not stated) | i | -0.44
Cc1cccc(NC(=O)CSc2nnc([C@@H](N)Cc3ccccc3)o2)c1C | i | -0.98
CC1=CC(=C2C(=O)c3ccccc3C2=O)C=C(C)O1 | i | 0.38
CCCCn1c(N)c(N(CCOC)C(=O)CSCc2cccc(C)c2)c(=O)[nH]c1=O | i | 2.1
C/C(=N\Nc1ccc(F)cc1F)c1ccc(Br)s1 | i | -1.1
CC1CCc2c(sc(N)c2C(N)=O)C1 (configuration not stated) | i | -0.81
O=C(Nc1ccc(F)cc1)Oc1ccccc1N1CCOCC1 | i | 2.8
CC(CCc1ccccc1)NC(=O)C(Cc1ccccc1)NS(=O)(=O)c1cccs1 (configuration not stated) | -5.7* | 0.41*
COc1ccc(S(=O)(=O)NCc2ccccn2)cc1NC(=O)c1ccccc1 | i | -0.12
CNC(=O)CC(C(=O)O)c1ccc(OC(C)C)cc1 (configuration not stated) | i | -0.08
O=c1c2ccccc2[nH]c(=S)n1Cc1ccccc1Cl | i | 0.83
O=C1N/C(=C\c2ccc(O)cc2)C(=O)c2ccccc21 | i | 1.7
CCCCOC(=O)c1sc2nc(C)cc(C)c2c1N | i | 0.25
CCOc1cc(C2C(C#N)=C(N)OC(C)=C2C(C)=O)c(Br)c(Br)c1OC(C)C (configuration not stated) | i | 1.1
CCOC(=O)c1ccc(N2CCOCC2)c(NC(=O)c2ccc3c(c2)OCO3)c1 | i | 0.06
O=C(NCc1ccco1)NC(=O)c1csc([N+](=O)[O-])c1 | i | -1.2
O=C(Nc1ccc([N+](=O)[O-])cc1)Nc1ccc(N2CCOCC2)c2nonc12 | i | -0.23
O=C(Nc1nc(-c2ccccc2)cs1)c1ccccc1NS(=O)(=O)c1ccc(F)cc1 | i | -1.6
CCc1nc2ccc(C(=O)N3CCN(c4cc(C)ccc4C)CC3)cc2nc1CC | i | -0.1
CC(=O)N(CCC1(c2ccc(C)cc2)CCOC(C(C)C)C1)Cc1ccco1 (configuration not stated) | -6* | 0.14*
Cc1ccc2c(c1)N(CC(=O)NCC(C)c1ccccc1)C(=O)c1cccnc1O2 (configuration not stated) | i | 0.12
C/C(CCc1ccccc1)=N\NC(=O)CC(=O)NCCc1ccccc1 | i | -0.62
COC(=O)C[C@H]1c2cc(C(F)(F)F)ccc2S(=O)(=O)N1Cc1ccccc1 | i | 0.01
CCCCOc1ccc(Cl)cc1CSc1nnc(CC)n1N | i | -1.4
CCOc1ccc(N2CC(O)(c3ccc(F)cc3)[N+]3=C2CCCC3)cc1 (configuration not stated) | i | -0.13
Cc1cccc2cc(C3CC(c4ccco4)=NN3S(=O)(=O)c3ccccc3)c(Cl)nc12 (configuration not stated) | i | -0.08
CC12CCC(c3nnc(SCc4ccc(Cl)cc4)nc31)C2(C)C (configuration not stated) | i | -1.2
COc1ccc(NC(=S)N2CCC(c3nc4ccc(Cl)cc4[nH]3)CC2)c(OC)c1 | i | -1.4

Later entries
SMILES | KCNQ2 inh | KCNQ2 inh baseline
CN(Cc1cn(C)nc1-c1ccc(Oc2ccccc2)cc1)Cc1cnc2ccccn12 | i | 4.6
CCSC1(SCC)N=C(N)C2(C#N)C(c3ccc(F)cc3)C12C#N (configuration not stated) | -5.9* | 1.5*
O=C(CSCc1cnn(-c2ccccc2)c1-n1cccc1)NCc1ccccn1 | i | 0.02
CC(NC(=S)Nc1ccccc1OC(F)F)C(C)(C)C (configuration not stated) | i | -0.47
O=C(N/N=C/c1ccc(O)cc1)c1cccc(C(F)(F)F)c1 | i | 0.76
CCc1ccc(NC(=O)Cn2nnc(-c3ccc(C)cc3-n3cnnn3)n2)cc1 | i | -4.2
CCN1CCN(C(=O)CN(C)S(=O)(=O)c2ccc(OC)cc2)CC1 | i | 0.17
Nc1c(N2CCCCC2)c(=O)[nH]c(=O)n1-c1ccccc1 | i | -0.89
COc1ccc(CNC(=O)CSc2nc3ccc(C)cc3[nH]2)cc1 | i | -1.4
COc1ccc(C)cc1Nc1nc(-c2c(C)[nH]c3ccccc23)cs1 | i | 0.77
Cc1cccc(-n2c(CCN3C(=O)c4ccccc4C3=O)nc3ccccc3c2=O)n1 | i | -1.8
CN1CCCc2cc(C=O)ccc21 | i | -2
Cc1ccc(C(=O)NCCN(C)C)cc1C | i | -0.2
COc1cccc2c1OCC(CN1CCN(C3CCCCC3)C(CCO)C1)=C2 (configuration not stated) | i | 0.54
Cc1ccc(S(=O)(=O)N2CCOCC2)cc1C(=O)Nc1ccc(S(=O)(=O)Nc2nccs2)cc1 | i | 2.8
CCOc1ccc(Cl)cc1CNc1nnnn1C | i | 2
Cc1nn(-c2ccccc2)c(N2CCCC2)c1/C=C1\N=C(c2ccccc2)OC1=O | i | 2
COc1ccc(NC(=O)Nc2nnc(Cc3ccc(OC)c(OC)c3)s2)cc1 | i | 1.3
CCN(CC)CCCNC(=O)c1cc2c(Cl)nc3ccccc3c2s1 | i | -0.8
O=C(CCCC(=O)OCC(Cl)=C(Cl)Cl)Nc1cccc2ccccc12 | i | -1.3
Cc1cc(C)n2nc(Nc3ccccc3)cc2n1 | i | -0.27
CCCc1cc(C(=O)Nc2ccc(C(=O)OC)cc2)cs1 | i | 0.45
Cn1c(N)c(C(=O)COC(=O)/C=C/c2ccc(S(=O)(=O)N3CCOCC3)cc2)c(=O)n(C)c1=O | i | -0.18
CCC1(c2ccccc2)NC(=O)N(CC(=O)Nc2ccc(S(=O)(=O)N3CC(C)CC(C)C3)cc2)C1=O (configuration not stated) | i | 0.33
CSc1cccc(NC(=O)C2CCCN(S(=O)(=O)c3ccc(F)cc3)C2)c1 (configuration not stated) | i | -0.72
O=Cc1sc(Nc2ccccc2)nc1Cl | i | 2.8
COC(=O)CSc1[nH]c2cc(C)ccc2c1[N+](=O)[O-] | i | -0.05
CCOC(=O)c1[nH]c(C)c(C(=O)OCc2ccccc2F)c1C | i | 0.13
O=C(NCCCN1CCOCC1)c1sc2cc(Cl)ccc2c1Cl | i | 0.06
Cc1ccc(N2NC(=O)/C(=C/c3ccc(-c4ccc(Cl)c(C(=O)O)c4)o3)C2=O)cc1C | i | -0.14
Cc1ccc(S(=O)(=O)N2CCCC(c3nc4c(nnn4Cc4ccc5c(c4)OCCO5)c(=O)[nH]3)C2)cc1 (configuration not stated) | i | -0.84
CCOc1ccccc1NC(=O)CSc1nc2cccnc2n1C | i | -0.1

Given with values under each structure: part of the list above.
Every second line gives: KCNQ2 inh | KCNQ2 inh baseline
CCOc1ccc(Cl)cc1CNc1nnnn1C
→ i | 2
O=C(CCCC(=O)OCC(Cl)=C(Cl)Cl)Nc1cccc2ccccc12
→ i | -1.3
